# Assay outcomes as filed in PubChem.
# Beta cell apopt – beta cell apoptosis inhibition | 300,000 compounds, 0.8% hits | AID 435005 | INS-1E cytokine-induced death, ATP luminescence, 48 h; percent of positive-control rescue, neutral wells zero | protection from apoptosis, % (no concentration beside the values);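 active = all replicates at 75% or more, or half of them and the mean; inconclusive = half reach 75% but not the mean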;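 also: 0% = cytokine-treated negative control wells and 100% = positive control rescue; higher means more ATP so stronger rescue from cytokine killing; wells of about 40 µL received 100 nL stock; the first replicate is given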
# Calb FLC – affects C. albicans growth with fluconazole; C. albicans CaCi-2 (fluconazole-resistant clinical isolate) + fluconazole, Alamar Blue growth, 48 h; growth inhibition, % (no concentration beside the values); 300,000 compounds, 0.57% hits; AID 1979;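 active = most replicates above 75%; inconclusive = exactly half above 75%; inactive = most below 75%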;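 also: all wells also contain fluconazole at 8 µg/ml as a sub-toxic cotreatment; 0% = median of DMSO wells and 100% = median of geldanamycin control wells; wells of about 8 µL received 7.5 nL stock; the first replicate is given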
# LANA-H2B inh – blocks KSHV LANA binding to histone H2A/H2B; cell-free LANA-H2A/H2B peptide, fluorescence polarization; inhibition, % (no concentration beside the values); Q9QR71; 320,000 compounds, 0.6% hits; in the data active = inhibition mostly above about 10%, no sharp cut-off; inactive = mostly below about 6.7%;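 also: stock transfer was 7.5 nL into about 10 µL; 0% = median of vehicle wells and 100% = median of positive control wells; one replicate is shown; the record names a cut of 25% in any replicate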
# Target sequence (Q9QR71 whole entry, looked up): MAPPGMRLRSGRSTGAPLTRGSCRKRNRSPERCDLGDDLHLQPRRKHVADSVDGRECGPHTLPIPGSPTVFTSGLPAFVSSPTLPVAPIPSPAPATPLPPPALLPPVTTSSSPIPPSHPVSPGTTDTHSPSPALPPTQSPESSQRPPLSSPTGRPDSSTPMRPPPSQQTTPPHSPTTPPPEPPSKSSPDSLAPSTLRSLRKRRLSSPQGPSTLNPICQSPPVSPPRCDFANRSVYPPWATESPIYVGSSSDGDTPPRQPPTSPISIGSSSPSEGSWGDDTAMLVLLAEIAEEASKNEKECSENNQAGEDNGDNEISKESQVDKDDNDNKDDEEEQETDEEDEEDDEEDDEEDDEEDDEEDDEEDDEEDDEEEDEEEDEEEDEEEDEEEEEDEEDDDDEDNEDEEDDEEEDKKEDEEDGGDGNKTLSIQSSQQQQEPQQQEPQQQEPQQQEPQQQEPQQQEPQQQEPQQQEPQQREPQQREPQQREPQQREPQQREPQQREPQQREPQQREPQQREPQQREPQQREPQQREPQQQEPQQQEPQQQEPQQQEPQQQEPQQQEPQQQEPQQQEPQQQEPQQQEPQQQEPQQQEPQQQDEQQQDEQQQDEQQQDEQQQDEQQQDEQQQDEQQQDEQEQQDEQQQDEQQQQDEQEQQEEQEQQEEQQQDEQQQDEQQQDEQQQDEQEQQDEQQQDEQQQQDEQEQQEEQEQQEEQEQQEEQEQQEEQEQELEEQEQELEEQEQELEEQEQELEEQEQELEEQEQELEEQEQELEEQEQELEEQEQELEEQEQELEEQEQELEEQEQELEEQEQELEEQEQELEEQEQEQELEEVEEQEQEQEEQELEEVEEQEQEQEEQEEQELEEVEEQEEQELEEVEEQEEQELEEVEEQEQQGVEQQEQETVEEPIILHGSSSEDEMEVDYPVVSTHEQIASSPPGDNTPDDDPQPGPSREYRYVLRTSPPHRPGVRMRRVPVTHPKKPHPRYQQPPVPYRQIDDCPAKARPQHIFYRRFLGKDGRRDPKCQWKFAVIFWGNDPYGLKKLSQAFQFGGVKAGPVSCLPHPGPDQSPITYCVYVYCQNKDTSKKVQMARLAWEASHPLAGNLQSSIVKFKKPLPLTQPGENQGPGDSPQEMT
# T cruzi inh – T. cruzi replication inhibition; T. cruzi beta-gal in NIH3T3, luminescence, 90 h; inhibition, % (concentration not given with the values); 300,000 compounds, 1.4% hits; AID 1885;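 active = mean inhibition across valid replicates above about 55%, limit read from the data; inconclusive = mean below that limit but half or more replicates reach it; inactive = mean below it, under half of replicates reach it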;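 also: signal also drops with host cell toxicity which is not excluded here; 0% = plate median of DMSO wells and 100% = zero luminescence signal; higher percent means less beta-gal luminescence so fewer parasites; stock transfer was 50 nL into about 50 µL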
# Bfl-1 A1 inh – inhibitors of the anti-apoptotic protein A1, read as caspase activation | MEF A1-2A-BIM cells, Caspase-Glo 3/7 luminescence, 3 h; percent of clofoctol response, vehicle zero | caspase activation, % (no concentration beside the values) | 330,000 compounds, 0.066% hits;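 active = over half of replicate activation scores above 10%, or exactly half above 10 with the replicate mean above 10; inconclusive = replicate mean below 10 yet half the replicates above 10; inactive = over half of replicates below 10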;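 also: wells of about 30 µL received 50 nL stock; many hits fall short of the cut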
# Beta2AR agonist – human beta-2 adrenergic receptor agonism by FAP | AID 504454 | 340,000 compounds, 0.43% hits | response, % (test concentration not listed) | P07550 | Am2.2-beta2AR cells, FAP receptor internalization, flow cytometry; reference of the scale not given here;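 active = response above a set limit, near 3 SD of response in nonfluorescent compounds, cut at about 42% in these data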;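 also: stock transfer was 100 nL into about 11 µL; a reference agonist was the positive control; negative values mostly stem from fluorescent compounds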
# Ecoli rRNA inh – selective bacterial rRNA inhibition in E. coli; GFP signal change (wild-type ribosome), % (test concentration not listed); E. coli WT GFP vs humanized-ribosome RFP mutants, fluorescence, 24 h; hits give low values; DMSO median 0, no signal -100; 350,000 compounds, 1.6% hits;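 active = significant combined selectivity score with lowered wild-type GFP, culture density cut under 30%, mutant RFP and density less affected; inactive = any of these conditions unmet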; also: one replicate is shown; some compounds called inactive have numbers as strong as hits
# ALR inh – inhibitors of human sulfhydryl oxidase ALR. P55789. purified ALR, DTT oxidation, H2O2 HRP-luminol luminescence. inhibition, % (concentration not given with the values). 290,000 compounds, 3.8% hits. AID 485317;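 active = mean and each replicate at 75% or more; inconclusive = only one of the two met; inactive = neither met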;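 also: stock transfer was 7.5 nL into about 7.5 µL; 0% = neutral wells and 100% = wells with inactivated enzyme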
# Ecoli rRNA inh OD600 – also measured in Ecoli rRNA inh; calls as there; OD600 change, %; measured here: OD600 growth;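 optical density of the mix in the first replicate; 0 = DMSO median and -100 = no signal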
# Ecoli rRNA inh RFP – recorded beside Ecoli rRNA inh, whose call it bears; RFP signal change, %; measured here: RFP humanized mutant strains;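 first replicate; 0 = DMSO median and -100 = no signal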
# Numbers without * were called inactive; i = inactive; ? = inconclusive; / = no result given.
SMILES,Beta cell apopt,Calb FLC,LANA-H2B inh,T cruzi inh,Bfl-1 A1 inh,Beta2AR agonist,Ecoli rRNA inh,Ecoli rRNA inh OD600,Ecoli rRNA inh RFP,ALR inh
S=c1[nH]nc(-c2ccccn2)n1/N=C/c1ccc(Cl)cc1,/,-2,-3.7,-9,-0.3,7,-2,1,-2.5,73
C/C(CCC(C)C)=N\NC(=S)Nc1cc(S(=O)(=O)N2CCOCC2)ccc1N1CCOCC1,2,26,i,17,-0.7,-3,12,3,1.3,7
COc1ccccc1CCNC(=O)C(=O)NCC1OCCCN1S(=O)(=O)c1ccc(F)cc1C (stereo unspecified),11,-2,2.4,13,-0.2,-5,-13,-12,2.0,-10
Cc1ccc(OCC(=O)N2CCCc3ccccc32)cc1,-1,-1,-0.5,9,1.7,-1,/,/,/,-5
Cc1ccc2cc(CCNC(=O)C(=O)c3c[nH]c4ccccc34)c(=O)[nH]c2c1,4,-11,-0.1,-17,0.2,-12,4,3,-1.4,/
Cc1ccccc1NC(=O)COC(=O)[C@@H]1CCCN1C(=O)c1cccs1,-4,/,-1.5,/,-1.2,11,6,8,-3.1,4
Cc1noc(C(=O)N2CCN(c3ccccc3)CC2)c1Cl,1,4,-1.8,-5,0.7,0,-1,-3,-1.1,96*
CC(C)CNC(=O)C(=O)N/N=C/c1cccs1,2,-37,0.4,-6,-0.8,2,/,/,/,82*
CO/N=C/C(C#N)=C/c1ccc(OC)cc1,-2,-6,6.2,-7,-2.2,-2,-13,-14,-8.1,-4
COc1ccc(NS(=O)(=O)c2cc(C(=O)N3CCN(C/C=C/c4ccccc4)CC3)ccc2C)cc1,13,5,-0.6,44,-0.1,-3,-24,-38,-4.5,-1
O=C(Cn1c(S(=O)(=O)Cc2ccccc2)nc2ccccc21)N1CCCCC1,-7,9,3.9,-9,-0.2,-1,0,-10,4.3,3
CCCSc1nnc2n(-c3ccccc3OC)c(=O)c3c4c(sc3n12)CCC4,15,11,-2.0,20,-0.5,0,/,/,/,4
CC(C)C(NCc1c(Cl)cccc1Cl)C(=O)O (stereo unspecified),-5,-10,-2.0,/,0.0,-2,8,-5,2.3,11
Cc1cc(C)n(CC(C)NC(=O)c2cc(COc3ccc(F)c(F)c3)on2)n1 (stereo unspecified),/,2,/,-5,/,8,0,-1,1.2,/
CCN(CC)S(=O)(=O)c1ccc2c(c1)c(=O)c(C(=O)NCCN(C)CCc1ccccc1)cn2C,/,0,-1.8,56*,0.2,-8,/,/,/,-16
COc1ccc(C(=O)N2CCOCC2)cc1Br,-1,-3,-1.3,-15,0.0,-2,/,/,/,14
CC(C)Oc1ccc(C(=O)OCC(=O)NCCNC(=O)COC(=O)c2ccc(OC(C)C)cc2)cc1,-6,-5,1.2,-9,0.3,-5,-2,2,-1.2,-2
CCCc1nnc(NC(=O)c2nc(S(=O)(=O)Cc3cccc(C)c3)ncc2Cl)s1,-23,3,0.3,0,?,24,6,-3,-0.7,13
O=C(NCC1COc2ccccc2O1)C1CCN(S(=O)(=O)c2cccc3nsnc23)CC1 (stereo unspecified),/,7,-0.2,-1,-0.3,3,/,/,/,-2
COc1ccc(C(=O)NCCn2cc(SCC(=O)NCC3CCCO3)c3ccccc32)cc1 (stereo unspecified),-2,-9,3.7,7,0.1,-10,-2,-1,2.6,-10
O=C(c1ccccc1)C1CCN(C(=O)c2ccco2)CC1,1,-1,-4.2,-1,-0.2,-3,-2,-1,-1.9,-2
Cc1ccccc1C(=O)c1c[nH]c(C(=O)N=CN(C)C)c1,-2,-32,2.8,-12,0.0,0,-11,-3,-3.7,-2
COc1ccc(-c2cc(C(=O)N3CCCCC3)c3ccccc3n2)cc1,/,1,-2.7,7,-1.5,-4,-14,-7,3.7,-15
COc1cc(C(=S)N2CCCCC2)ccc1OCC(=O)Nc1ccc(F)cc1,-1,6,-0.7,3,0.1,4,-6,-12,8.5,-2
O=C1CN(C(=O)OCc2ccccc2)c2ccccc2N1,2,-1,-5.4,3,-4.2,-11,/,/,/,-10

# (cont.)
SMILES,Beta cell apopt,Calb FLC,LANA-H2B inh,T cruzi inh,Bfl-1 A1 inh,Beta2AR agonist,Ecoli rRNA inh,Ecoli rRNA inh OD600,Ecoli rRNA inh RFP,ALR inh
CC(NC(=O)c1ccccc1Br)C1CC2CCC1C2 (stereo unspecified),/,0,-2.7,7,-0.3,-2,0,4,-1.0,0
Cc1ccc(-c2cc(C(=O)N3CCN(C(=O)c4ccco4)CC3)[nH]n2)cc1C,-4,4,-0.5,-5,-1.2,-7,1,-5,1.8,10
COC(=O)CNC(=O)COc1ccccc1,-3,-2,0.6,-2,1.5,3,/,/,/,0
CC(=O)N1CCN(C(=O)COC(=O)c2ccc(S(C)(=O)=O)cc2)CC1,-3,/,5.7,/,0.3,-5,0,2,-2.3,-10
Cc1cc(C(=O)N2CCOCC2)ccc1[N+](=O)[O-],-6,-7,0.3,-6,2.0,-1,27,23,1.1,-6
CCOc1ccc(OCC(=O)Nc2ccc(S(=O)(=O)Nc3cc(C)nc(C)n3)cc2)cc1,-9,-16,-5.5,-4,0.3,4,/,/,/,-7
COc1cc2nc(NCCCN3CCN(C)CC3)n3nc(-c4ccccc4)nc3c2cc1OC,19,1,-6.8,62*,0.7,8,/,/,/,/
CCN(CC)C(=O)CSc1ccccc1N,0,-1,-2.6,-11,-0.3,14,/,/,/,35
Cc1cccc(CCNC(=O)CC2C(=O)NCCN2Cc2ccccc2C)n1 (stereo unspecified),-3,8,6.1,-17,0.0,14,6,8,4.1,-11
CCCCCCCCCCSc1n[nH]c(N)n1,-10,?,-5.4,-50,0.0,-3,-10,-43,0.1,-2
CCOC(=O)c1csc(NC(=O)c2ccc(C#N)cc2)n1,3,17,-4.5,-1,-0.6,0,5,9,1.1,-7
COc1ccc(/C=C(\C#N)C(=O)OCC(=O)NCc2ccco2)cc1,-1,21,-2.9,-31,0.5,2,-1,5,0.9,3
C/C=C/C(=O)OCc1csc(CC(=O)Nc2ccccc2C)n1,3,-12,-1.5,-3,-0.1,-2,5,9,4.2,-3
O=C(c1cccc([N+](=O)[O-])c1)N1CCN(Cc2ccc3c(c2)OCO3)CC1,2,-41,7.0,15,-0.1,-1,20,9,1.6,-4
Cc1noc(C)c1C(=O)NCCc1ccc(Cl)cc1,1,3,0.0,-6,-1.0,6,7,3,-4.4,37
COc1ccccc1NC1=C(C)C(=O)CC1,/,-6,-3.0,2,-0.1,2,/,/,/,-23
CCOC(=O)N1CCN(C(=O)c2cc3n(n2)C(C(F)(F)F)CC(c2ccc4c(c2)OCO4)N3)CC1 (stereo unspecified),/,-11,-3.6,-6,0.5,2,0,-7,-0.4,-15
O=C(NCCC1=CCCCC1)C(=O)NCC1OCCCN1S(=O)(=O)c1ccc(F)cc1 (stereo unspecified),-2,3,-6.0,-21,0.0,-3,4,11,-2.2,10
Cc1ccc(Oc2c(CO)c(-c3ccccc3)nn2C)cc1,2,-10,1.8,0,0.1,4,-24*,-18*,-5.8*,2
O=C(CCn1cccc1)NCc1ccc2c(c1)OCO2,-1,6,0.7,-7,0.0,0,/,/,/,3
CCc1nnc(NS(=O)(=O)c2ccc(NC(=O)c3cccc([N+](=O)[O-])c3)cc2)s1,-5,4,5.6,-23,-0.3,8,6,7,-1.5,3
CN(C)S(=O)(=O)c1ccc(N2CCCC2)c(C(=O)NNC(=O)COc2ccccc2F)c1,-5,2,4.5,-2,0.1,-1,-1,-3,-2.2,-6
O=[n+]1cc(-c2ccccc2)n([O-])c2c1CCCCC2,1,4,-0.2,-2,-0.5,3,/,/,/,-13
CN1CCN(C(=O)c2cc(-c3cccc(Cl)c3)on2)CC1,-7,-7,7.7,-8,0.4,14,/,/,/,15
Cc1c(C(=O)N2CCN(c3ccccc3F)CC2)sc2ncn(CC(=O)N3CCOCC3)c(=O)c12,/,-30,8.8,-8,-0.3,1,/,/,/,-9

# Carrying on:
SMILES,Beta cell apopt,Calb FLC,LANA-H2B inh,T cruzi inh,Bfl-1 A1 inh,Beta2AR agonist,Ecoli rRNA inh,Ecoli rRNA inh OD600,Ecoli rRNA inh RFP,ALR inh
Cc1nn(-c2ccccc2)c2nc(-c3ccccc3)cc(C(=O)N3CCOCC3)c12,0,22,2.0,31,-0.3,2,-9,-10,4.0,/
O=C(CN(Cc1ccc(Cl)cc1)C(=O)CNS(=O)(=O)c1ccc(F)cc1)NCC1CCCO1 (stereo unspecified),3,-4,-2.0,5,-0.2,0,7,2,-0.8,-2
CCn1c(C)cc(/C=C2/NC(=O)N(c3ccccc3)C2=O)c1C,15,5,-0.8,12,0.0,6,11,5,4.5,-2
Cc1ccc(CCNC(=O)Cc2ccc(NC3=NC4CS(=O)(=O)CC4S3)cc2)cc1 (stereo unspecified),-3,-9,-1.9,-10,/,16,-6,-12,0.6,-3
CCOC(=O)c1c(C)[nH]c(C(=O)C(C)Cl)c1C (stereo unspecified),-20,6,1.0,3,0.6,7,5,-13,-4.6,9
Cc1cc2c(c(=O)n1C)C(C(C)C)C(C#N)=C(N)O2 (stereo unspecified),-2,4,-1.0,-11,-0.1,-2,/,/,/,-13
Cc1oc(-c2ccccc2Cl)nc1CS(=O)CC(=O)NCc1ccccc1Cl (stereo unspecified),-6,-7,4.7,-19,1.2,3,-18,-51,5.6,99*
c1ccc(C2=NNC(c3ccccn3)=NN2)nc1,0,-4,-3.1,-8,-7.4,0,14,0,9.9,-13
CCOC(=O)N/N=C/c1cn(Cc2ccccc2Cl)c2ccccc12,8,-5,-2.5,13,-0.6,0,/,/,/,-1
Cc1cccc(C(=O)OCC(=O)N(C)CC(=O)Nc2ccc(Cl)c(C(F)(F)F)c2)c1,-6,/,1.8,/,-0.2,-11,1,-7,0.4,-1
CCC(=O)Oc1ccc2c(C)cc(=O)oc2c1C,/,7,-0.3,-22,1.2,0,/,/,/,/
O=C(Nc1ccc2ccccc2c1)[C@@H]1C[C@H]1[C@@H](NP(=O)(c1ccccc1)c1ccccc1)c1ccccc1,4,/,-1.5,/,0.7,4,12,8,11,-9
Cc1ccc2cc(CN(c3ccccc3C)S(=O)(=O)c3ccccc3)c(=O)[nH]c2c1,1,-1,-5.4,2,-0.4,-15,6,16,0.4,-8
COc1ccccc1/C=N/NC(=O)c1ccc(N(C)S(=O)(=O)c2ccccc2)cc1,-1,14,8.0,-6,0.3,6,6,1,6.6,2
CC(C)[C@H](NC(=O)OC(C)(C)C)c1nnc(SCc2cccc(F)c2)o1,-2,-6,-0.5,13,0.8,-1,/,/,/,/
O=C(CN1C(=O)/C(=C/c2ccco2)SC1=S)Nc1ccc(O)c(C(=O)O)c1,0,2,3.4,-26,0.2,8,0,15,7.4,18
CCOC(=O)CCSc1nc(N2CCOCC2)c2c(c1C#N)CC(C)(C)OC2,-2,3,-1.1,14,-0.2,5,6,0,0.4,-10
Cc1ccc(NC(=O)Cn2cnc3cc([N+](=O)[O-])ccc3c2=O)cc1,-3,-1,7.0,52,-0.4,-6,4,11,-5.1,-7

# Some of the compounds tested, so the mix of outcomes need not match the whole.
